High-throughput results from PubChem.
HNF4A DNA FP: change in binding of human HNF4 alpha to DNA. P41235. HNF4a-FITC DNA binding, fluorescence polarization, 1 h. activity change, % at 10 µM. hit rate 0.3% among 360,000; in the data active = activity change above about 30%, passing the limit was not always enough;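 note: controls were the assay level and a saturating level of protein; the project sought stronger binding though the title names inhibitors; some compounds called inactive have numbers as strong as hits; positive values seem to mean higher polarization but the record does not say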
Target sequence (P41235 whole entry, looked up): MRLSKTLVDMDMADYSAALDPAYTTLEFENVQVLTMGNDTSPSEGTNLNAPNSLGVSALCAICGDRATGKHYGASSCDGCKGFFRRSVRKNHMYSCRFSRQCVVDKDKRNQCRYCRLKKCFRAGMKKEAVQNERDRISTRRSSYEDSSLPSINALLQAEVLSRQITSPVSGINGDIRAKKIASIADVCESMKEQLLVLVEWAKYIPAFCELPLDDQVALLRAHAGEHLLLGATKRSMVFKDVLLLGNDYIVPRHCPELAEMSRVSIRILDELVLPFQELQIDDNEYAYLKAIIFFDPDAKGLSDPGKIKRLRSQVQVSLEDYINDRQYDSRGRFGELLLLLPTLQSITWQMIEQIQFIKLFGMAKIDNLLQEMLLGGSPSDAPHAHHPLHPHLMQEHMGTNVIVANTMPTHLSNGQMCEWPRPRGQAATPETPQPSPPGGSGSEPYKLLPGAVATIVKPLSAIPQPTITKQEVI
ALR inh: inhibitors of human sulfhydryl oxidase ALR; purified ALR, DTT oxidation, H2O2 HRP-luminol luminescence; inhibition, % (test concentration not listed); hit rate 3.8% among 290,000; AID 485317; P55789;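 active = mean and each replicate at 75% or more; inconclusive = only one of the two met; inactive = neither met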;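 note: stock transfer was 7.5 nL into about 7.5 µL; 0% = neutral wells and 100% = wells with inactivated enzyme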
Target sequence (P55789 whole entry, looked up): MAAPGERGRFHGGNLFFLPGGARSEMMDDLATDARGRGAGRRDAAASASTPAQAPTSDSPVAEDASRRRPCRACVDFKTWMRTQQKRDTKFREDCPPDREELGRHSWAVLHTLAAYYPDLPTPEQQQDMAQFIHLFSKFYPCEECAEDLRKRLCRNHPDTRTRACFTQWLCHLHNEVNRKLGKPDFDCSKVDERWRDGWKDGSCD
AF4-AF9 inh: inhibitors of human MLL-AF4/AF9 interaction. AlphaScreen, biotin-AF4 peptide binding to FLAG-AF9. inhibition, % at 10 µM. hit rate 0.47% among 350,000;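 active = every replicate reaching a set inhibition limit, whatever the replicate mean, cut at about 25% in these data; inconclusive = mean inhibition reaches that limit but some replicates miss it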;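 note: 0% = plate neutral control median and 100% = total signal loss; the record names both 10 and 1 µM as test concentration; the first replicate is given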
Vif TR-FRET: inhibitors of Vif binding to APOBEC3G peptide, primary screen, biochemical, TR-FRET, GST-Vif 1-94, biotin-A3G peptide, dose response retest (AID 1117319) | inhibition, %; hits with a dose series show IC50 in µM | hit rate 0.57% among 260,000 | TR-FRET GST-Vif / biotin-A3G peptide binding; higher % means a stronger effect; test concentration not given here; strong numbers were not always called active;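 active = above the screen mean plus three standard deviations and confirmed in dose response; inconclusive = results disagree or hit not tested in dose response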;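 note: Vif residues 1-94 fused to GST binding biotinylated APOBEC3G peptide 110-148; 0% = full assay without inhibitor and 100% = GST in place of GST-Vif; retest series ran down from 100 µM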
rRNA inh HTS: selective bacterial rRNA inhibition in E. coli. GFP signal change (wild-type ribosome), % (concentration not given with the values). hit rate 1.6% among 350,000. E. coli WT GFP vs humanized-ribosome RFP mutants, fluorescence, 24 h; stronger effect = lower value; DMSO median 0, no signal -100;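 active = significant combined selectivity score with lowered wild-type GFP, culture density cut under 30%, mutant RFP and density less affected; inactive = any of these conditions unmet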; note: one replicate is shown; some compounds called inactive have numbers as strong as hits
E coli growth: blocks Escherichia coli growth. OD600, 23 h; stronger effect = lower value. OD600 absorbance (concentration not given with the values). hit rate 0.21% among 330,000. AID 1053175;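 active = OD600 absorbance below the run mean of sample wells minus 3.6 SD, in any replicate, cut at about 0.56 in these data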;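 note: stock transfer was 300 nL into about 60 µL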
FGF22 binding: shifts melting point of recombinant human FGF22. hit rate 1.5% among 340,000. AID 651658. recombinant FGF22 thermal shift, SYPRO orange fluorescence; percent of sucrose octasulfate shift, DMSO zero. calls only at 9.99 µM;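 active = melting point raised past a set limit in the mean and every replicate; inconclusive = no clear call; three in four hits are not shown here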
Target sequence (Q9HCT0 whole entry, looked up): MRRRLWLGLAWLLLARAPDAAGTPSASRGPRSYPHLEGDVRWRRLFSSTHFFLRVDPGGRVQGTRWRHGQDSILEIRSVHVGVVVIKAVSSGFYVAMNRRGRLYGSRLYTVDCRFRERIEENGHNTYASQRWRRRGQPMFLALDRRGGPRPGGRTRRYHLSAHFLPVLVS
rRNA inh HTS OD600: also measured in rRNA inh HTS; calls as there; OD600 change, %; measured here: OD600 growth;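 optical density of the mix in the first replicate; 0 = DMSO median and -100 = no signal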
rRNA inh HTS RFP: second read-out of rRNA inh HTS, no call of its own (marks repeat the call); RFP signal change, %; measured here: RFP humanized mutant strains;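 first replicate; 0 = DMSO median and -100 = no signal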
Active calls of the source: *; i = inactive; u = inconclusive; x = not tested or not shown. Not all compounds are listed (hit frequency here may not be typical).

HNF4A DNA FP	ALR inh	AF4-AF9 inh	Vif TR-FRET	rRNA inh HTS	rRNA inh HTS OD600	rRNA inh HTS RFP	E coli growth	FGF22 binding	canonical_smiles
x	x	-1.7	x	1	0	-2.3	x	i	C[C@H]1CN([C@@H](C)CO)C(=O)c2ccccc2-c2ccccc2CO[C@@H]1CN(C)CC1CC1
-0.4	-5	x	11%	x	x	x	0.68	x	CCN(c1ccccc1)S(=O)(=O)c1ccc(Oc2ccc(-n3ccnc3)cc2)nc1
-0.7	-2	1.7	15%	-57	-80	-28	0.092*	i	COc1c(N2CCN(C(=S)NC3CC4CCC3C4)C(C)C2)c(F)cc2c(=O)c(C(=O)O)cn(C3CC3)c12 (centres undefined)
6.2	89*	0.9	-4%	9	13	-1.3	0.71	i	CCN1C(=O)C(=O)N(CC(=O)c2cc(C)n(C3CC3)c2C)C1=O
-3.1	2	x	-4%	x	x	x	0.73	x	COc1ccc(-c2nnc(SCC(=O)NC(C)C)n2CC2CCCO2)cc1OC (centres undefined)
x	x	-2.8	x	2	12	-1.7	x	i	CC(C)NC(=O)Nc1ccc2c(c1)C(=O)N([C@@H](C)CO)C[C@@H](C)[C@H](CN(C)C(=O)Nc1ccc3c(c1)OCO3)O2
1.9	-1	-37	8%	1	0	-1.8	0.7	i	CCCCCN(C(=O)CCC(=O)OCCOc1ccccc1Cl)c1c(N)n(CCCC)c(=O)[nH]c1=O
4.6	-5	x	-2%	x	x	x	0.75	x	CCOC(=O)N1CCC(NC(=O)C2CCN(c3ccc(N4CCOCC4)nn3)CC2)CC1
1.2	-12	-4.3	-3%	5	-7	2.3	0.69	i	CCCC(=O)Nc1sc(C(=O)OC)c(C)c1C(N)=O
-2.6	x	-0.5	x	-4	-20	2.9	x	i	O=C(Nc1ccccc1)c1cc(C2CCCCN2C(=O)CCc2ccccc2)on1 (centres undefined)
6.8	1	0.2	1%	3	6	2.3	0.74	i	CCCCCC(=O)Nc1nc(C)c(-c2csc(Nc3ccccc3OCC)n2)s1
x	x	0.9	x	0	7	-1.9	x	i	O=C(C[C@@H]1C=C[C@H](NC(=O)c2ccccn2)[C@H](CO)O1)NCc1cc(F)cc(F)c1
-7.1	x	0.6	x	-22	-34	2.9	x	x	COc1ccc(Br)cc1C=NNS(=O)(=O)c1ccc(C)cc1
-2.7	x	x	5%	x	x	x	0.69	x	Cc1ccc(C)c(OCCN2C(=O)NC3(CCc4ccccc4C3)C2=O)c1 (centres undefined)
-2.3	-5	0.0	x	8	10	0.1	0.64	i	Cc1ccnc(NS(=O)(=O)c2cc(-c3cc(C)no3)ccc2C(C)C)c1
-0.8	0	-6.7	x	7	12	1.5	0.68	i	O=C1c2cccnc2C(=O)N1Cc1ccc(S(=O)(=O)N2CCN(c3ccc(Cl)cc3)CC2)cc1
-0.9	x	-0.2	x	6	-15	-1.6	0.7	i	COc1ccc(NC(=O)/C(N=Nc2cccc(S(=O)(=O)Nc3ccc(SC(F)F)cc3)c2)=C(\C)O)cc1
-1.1	x	x	7%	x	x	x	0.77	x	Cn1c(CO)cnc1SCc1ccc([N+](=O)[O-])cc1
-0.1	-10	x	25%	x	x	x	0.76	x	COCCNC(=O)COC(=O)/C=C/c1cnc2ccccc2n1
4.1	-2	19	1%	2	0	1.6	0.7	i	COc1ccccc1NS(=O)(=O)c1cccc(C(=O)NCC(c2ccccc2OC)N2CCCC2)c1 (centres undefined)

(more compounds)
HNF4A DNA FP	ALR inh	AF4-AF9 inh	Vif TR-FRET	rRNA inh HTS	rRNA inh HTS OD600	rRNA inh HTS RFP	E coli growth	FGF22 binding	canonical_smiles
4.4	-30	-2.4	x	0	3	3.2	0.65	i	CC1(C)CC(NC(=O)c2cc(Cl)ccc2Cl)CC(C)(C)N1
3.2	4	-3.5	x	-21	-36	-4.0	0.67	i	O=C(c1sc2ccccc2c1Cl)N1CCN(c2ccccn2)CC1
0.1	x	-2.9	1%	5	2	-2.0	0.68	i	CC1CN(C(=O)Nc2ccc(Br)cc2Cl)CC(C)O1 (centres undefined)
-1.7	-1	-2.2	24%	11	2	-1.7	0.66	i	CCNc1nc(NCC)n2c(SCC(=O)NCC3CCCCC3)nnc2n1
-1.3	1	-1.9	-10%	-3	2	-2.8	0.71	i	Cc1ccc(SCC(=O)OCC(=O)NCCc2ccc(S(N)(=O)=O)cc2)c(C)c1
x	x	5.5	x	-3	-19	1.0	x	i	C[C@H](CO)N1C[C@H](C)[C@H](CN(C)Cc2ccc(Oc3ccccc3)cc2)Oc2ccc(NS(C)(=O)=O)cc2CC1=O
3.8	0	x	4%	x	x	x	0.69	x	Cc1cc(C)nc(NS(=O)(=O)c2ccccc2)n1
-0.1	-4	0.1	-3%	-2	8	0.4	0.67	i	CC(=O)Nc1ccc(C(O)(C(F)(F)F)C(F)(F)F)cc1
1.3	-8	x	u	x	x	x	0.77	x	CC(C)n1c(SCC(=O)Nc2ccccc2)nc2c1c(=O)n(C)c(=O)n2C
1.0	x	0.1	7%	7	21	-2.4	0.68	i	CC(C)N(C(=O)[C@H]1C[C@H](CC(=O)NCCC2=CCCCC2)C(=O)N2CCc3c([nH]c4ccc(Cl)cc34)[C@]12C)C(C)C
x	x	1.3	x	-26	-53	25	x	i	COc1ccc(-c2nc3ccc(C)cn3c2Cc2ccccc2C(F)(F)F)cc1OC
-1.9	-22	-4.9	x	3	6	6.6	0.71	i	Cn1c(=O)c2sccc2n2c(CCCC(=O)NCc3ccc(F)cc3)nnc12
x	x	-3.3	x	0	8	-2.2	x	i	Cc1noc(C)c1NC(=O)Nc1cccc2c1O[C@@H](CN(C)C(=O)Nc1ccc3c(c1)OCO3)[C@@H](C)CN([C@@H](C)CO)C2=O
-0.6	x	0.0	-9%	11	7	1.3	0.69	i	COc1ccc(C(=O)NCCS(=O)(=O)NCc2ccccc2)cc1
-2.8	1	-2.8	17%	6	12	5.3	x	i	Cc1c(C(=O)N/N=C/c2ccc(Cl)cc2)[nH]c2ccc(Cl)cc12
x	x	-0.6	x	0	0	0.1	x	i	CC=Cc1ccc2n(c1=O)C[C@H]1N[C@@H]2[C@@H](C(=O)NCCc2ccccc2)[C@@H]1CO (mixture of isomers)
1.5	-2	0.4	-12%	2	-3	-1.3	0.72	i	Cc1noc(C)c1S(=O)(=O)N1CCCC1C(=O)NC(C)(C)C (centres undefined)
0.0	-16	x	-32%	x	x	x	0.65	x	O=C(CSc1nc2c(c(C(F)(F)F)n1)CCc1ccccc1-2)NCc1ccco1
x	x	3.2	x	-1	-5	-1.9	x	i	COc1ccc(S(=O)(=O)N[C@H]2CC[C@@H](CC(=O)N3CCC(Cc4ccccc4)CC3)O[C@@H]2CO)cc1
-3.3	x	-0.5	x	-28	-38	-9.9	x	i	COc1ccc(C(C)(C)C)cc1NC(=O)CCc1c(C)noc1C

Reformatted with two lines to a compound: entries from further up
Results follow in this order: HNF4A DNA FP	ALR inh	AF4-AF9 inh	Vif TR-FRET	rRNA inh HTS	rRNA inh HTS OD600	rRNA inh HTS RFP	E coli growth	FGF22 binding
CC(C)N(C(=O)[C@H]1C[C@H](CC(=O)NCCC2=CCCCC2)C(=O)N2CCc3c([nH]c4ccc(Cl)cc34)[C@]12C)C(C)C
 : 1.0	x	0.1	7%	7	21	-2.4	0.68	i
COc1ccc(-c2nc3ccc(C)cn3c2Cc2ccccc2C(F)(F)F)cc1OC
 : x	x	1.3	x	-26	-53	25	x	i
Cn1c(=O)c2sccc2n2c(CCCC(=O)NCc3ccc(F)cc3)nnc12
 : -1.9	-22	-4.9	x	3	6	6.6	0.71	i
Cc1noc(C)c1NC(=O)Nc1cccc2c1O[C@@H](CN(C)C(=O)Nc1ccc3c(c1)OCO3)[C@@H](C)CN([C@@H](C)CO)C2=O
 : x	x	-3.3	x	0	8	-2.2	x	i

Complete entries, looked up by structure:
CC1CN(C(=O)Nc2ccc(Br)cc2Cl)CC(C)O1 (centres undefined) across the screens: HNF4A DNA FP = 0.1; ALR inh = x; AF4-AF9 inh = -2.9; Vif TR-FRET = 1%; rRNA inh HTS = 5; rRNA inh HTS OD600 = 2; rRNA inh HTS RFP = -2.0; E coli growth = 0.68; FGF22 binding = i
CC(=O)Nc1ccc(C(O)(C(F)(F)F)C(F)(F)F)cc1 across the screens: HNF4A DNA FP = -0.1; ALR inh = -4; AF4-AF9 inh = 0.1; Vif TR-FRET = -3%; rRNA inh HTS = -2; rRNA inh HTS OD600 = 8; rRNA inh HTS RFP = 0.4; E coli growth = 0.67; FGF22 binding = i

More structures
HNF4A DNA FP	ALR inh	AF4-AF9 inh	Vif TR-FRET	rRNA inh HTS	rRNA inh HTS OD600	rRNA inh HTS RFP	E coli growth	FGF22 binding	canonical_smiles
x	x	-1.3	x	6	6	1.1	x	i	CN(C)CCCNC(=O)C[C@@H]1CC[C@@H](NS(=O)(=O)c2ccccc2)[C@H](CO)O1
-1.9	-17	-1.1	2%	1	3	-1.8	0.65	i	O=C(Nc1ccc(-c2cscn2)cc1)C1CCCN(Cc2ccccc2)C1 (centres undefined)
1.7	-24	-1.9	22%	18	20	1.7	0.72	i	O=c1[nH]cc(C(F)(F)F)cc1NS(=O)(=O)c1ccc([N+](=O)[O-])cc1
x	x	-1.9	x	3	7	-1.7	x	i	C[C@@H]1CCCCO[C@@H](CN(C)S(=O)(=O)c2cccs2)[C@@H](C)CN([C@H](C)CO)C(=O)c2cc(NC(=O)CCCN(C)C)ccc2O1
-1.8	x	-20	20%	-12	-11	8.3	0.68	i	CCOC(=O)C1(Cc2ccc(OC)cc2)CCN(C(=O)c2ccc3[nH]ccc3c2)CC1
-4.3	62	-2.6	-3%	-2	4	1.3	0.68	i	O=C(O)C(Cc1c[nH]c2ccccc12)NS(=O)(=O)c1ccc(Cl)c(C(F)(F)F)c1 (centres undefined)
-0.1	2	x	6%	x	x	x	0.74	x	CCOC(=O)CSc1nnc([C@@H](NC(=O)OC(C)(C)C)C(C)C)o1
2.5	6	-1.9	x	1	6	-0.2	0.69	i	Cc1ccccc1NC(=O)C1CCCN(C(=O)Nc2ccc(F)cc2)C1 (centres undefined)
3.7	3	-1.9	1%	4	7	3.9	0.73	i	Cc1nc2ccccc2c2oc(C(=O)NCCN3CCN(C)CC3)cc12
x	x	-0.6	x	3	10	0.1	x	i	COc1ccc(NC(=O)N(C)C[C@@H]2OCc3ccccc3-c3ccccc3C(=O)N([C@@H](C)CO)C[C@H]2C)c(OC)c1
x	x	-1.6	x	-5	0	0.3	x	i	C[C@@H]1CN([C@@H](C)CO)C(=O)c2cccc(NC(=O)Nc3ccc(C(F)(F)F)cc3)c2O[C@H]1CN(C)C(=O)Nc1ccccc1
0.6	u	x	-3%	x	x	x	0.72	x	S=c1nc(-c2ccccc2)[nH]n1-c1ccccc1
1.9	7	-1.1	22%	7	18	7.0	x	i	CC(=O)NC1=C(N(C)C2CCS(=O)(=O)C2)C(=O)c2ccccc2C1=O (centres undefined)
0.9	x	1.2	3%	0	7	6.2	x	i	C=C(C)C(=O)N1CC2(CC(c3cccc(NC(=O)/C=C\C)c3)=NO2)C[C@H]1C(N)=O (some centres undefined)
0.8	0	-1.5	2%	x	x	x	0.69	i	CC(=O)N1CCCN(C(=O)c2ccc3nc(Cc4ccccc4F)oc3c2)CC1
x	x	-3.9	x	4	12	0.8	x	i	C/C=C/c1cnc2c(c1)C(=O)N([C@@H](C)CO)C[C@H](C)[C@H](CN(C)C(=O)c1cccnc1)O2
22	-7	-2.0	x	4	1	0.4	0.69	i	O=C(OCn1nnc2ccccc2c1=O)c1cc2ccccc2o1
